Screening results from PubChem BioAssay.
Bfl-1 A1 inh – inhibitors of the anti-apoptotic protein A1, read as caspase activation. caspase activation, % (no concentration beside the values). 330,000 compounds, 0.066% hits. MEF A1-2A-BIM cells, Caspase-Glo 3/7 luminescence, 3 h; percent of clofoctol response, vehicle zero. AID 2462;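 active means over half of replicate activation scores above 10%, or exactly half above 10 with the replicate mean above 10; inconclusive means replicate mean below 10 yet half the replicates above 10; inactive means over half of replicates below 10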;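 further: wells of about 30 µL received 50 nL stock; many hits fall short of the cut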
UCH37 DUB inh – human UCH37 deubiquitinating enzyme inhibition. 330,000 compounds, 0.33% hits. Q9Y5K5. inhibition, % (test concentration not listed). AID 588478. purified proteasome/UCH37, Ub-AMC cleavage fluorescence;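 active means mean of two replicates above 20%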;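 further: 0% = compound-free wells with enzyme and 100% = wells lacking proteasome; stock transfer was 100 nL into about 20 µL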
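Assay system: Proteasome-bound UCH37. Buffer or medium: pH 7.4 Tris-HCl (50 mM) with ovalbumin, ATP-MgCl2, DTT. Incubation: 30 min preincubation with enzyme, 25 min cleavage at room temperature. Measured by: fluorescence, ex 355 nm, em 460 nm. Read-out basis: percent inhibition. Control set: wells without proteasome as full block, compound-free enzyme plus substrate as uninhibited.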
LANA-H2B inh – blocks KSHV LANA binding to histone H2A/H2B | cell-free LANA-H2A/H2B peptide, fluorescence polarization | 320,000 compounds, 0.6% hits | inhibition, % (no concentration beside the values) | Q9QR71; in the data active means inhibition mostly above about 10%, no sharp cut-off; inactive means mostly below about 6.7%;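 further: stock transfer was 7.5 nL into about 10 µL; 0% = median of vehicle wells and 100% = median of positive control wells; one replicate is shown; the record names a cut of 25% in any replicate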
Target sequence (Q9QR71 whole entry, looked up): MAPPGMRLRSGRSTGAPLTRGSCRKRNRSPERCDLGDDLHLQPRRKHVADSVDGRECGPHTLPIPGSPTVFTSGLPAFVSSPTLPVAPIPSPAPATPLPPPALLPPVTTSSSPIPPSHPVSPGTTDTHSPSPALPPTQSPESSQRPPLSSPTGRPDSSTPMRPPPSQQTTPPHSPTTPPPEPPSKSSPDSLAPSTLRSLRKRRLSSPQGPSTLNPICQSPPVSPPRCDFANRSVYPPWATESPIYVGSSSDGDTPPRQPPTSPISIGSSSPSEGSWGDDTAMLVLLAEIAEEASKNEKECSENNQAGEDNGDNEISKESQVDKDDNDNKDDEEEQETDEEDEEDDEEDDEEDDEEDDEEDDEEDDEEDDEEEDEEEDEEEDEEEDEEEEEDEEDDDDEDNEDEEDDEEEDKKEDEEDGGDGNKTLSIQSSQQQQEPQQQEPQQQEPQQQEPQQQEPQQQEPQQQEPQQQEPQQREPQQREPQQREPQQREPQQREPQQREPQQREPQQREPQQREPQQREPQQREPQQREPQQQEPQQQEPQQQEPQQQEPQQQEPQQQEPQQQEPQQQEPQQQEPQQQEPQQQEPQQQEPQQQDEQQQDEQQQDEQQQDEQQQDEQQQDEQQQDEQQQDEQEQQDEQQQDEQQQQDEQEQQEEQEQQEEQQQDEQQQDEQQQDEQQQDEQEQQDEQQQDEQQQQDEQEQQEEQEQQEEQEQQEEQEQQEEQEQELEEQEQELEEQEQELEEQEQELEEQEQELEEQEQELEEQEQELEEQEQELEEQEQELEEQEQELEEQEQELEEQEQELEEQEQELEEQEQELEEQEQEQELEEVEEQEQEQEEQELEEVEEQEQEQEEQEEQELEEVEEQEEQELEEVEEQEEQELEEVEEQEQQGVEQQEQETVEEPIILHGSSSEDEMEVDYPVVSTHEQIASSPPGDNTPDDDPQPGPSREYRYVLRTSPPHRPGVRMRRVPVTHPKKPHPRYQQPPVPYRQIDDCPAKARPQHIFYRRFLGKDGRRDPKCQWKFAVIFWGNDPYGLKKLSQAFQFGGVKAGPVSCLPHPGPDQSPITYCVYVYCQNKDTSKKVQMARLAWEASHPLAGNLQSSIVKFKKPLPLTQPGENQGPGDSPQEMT
HNF4A DNA FP – change in binding of human HNF4 alpha to DNA. HNF4a-FITC DNA binding, fluorescence polarization, 1 h. activity change, % at 10 µM. 360,000 compounds, 0.3% hits. AID 1224865; in the data active means activity change above about 30%, passing the limit was not always enough;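 further: controls were the assay level and a saturating level of protein; the project sought stronger binding though the title names inhibitors; some compounds called inactive have numbers as strong as hits; positive values seem to mean higher polarization but the record does not say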
Beta2AR agonist – human beta-2 adrenergic receptor agonism by FAP | Am2.2-beta2AR cells, FAP receptor internalization, flow cytometry; reference of the scale not given here | response, % (no concentration beside the values) | 340,000 compounds, 0.43% hits;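 active means response above a set limit, near 3 SD of response in nonfluorescent compounds, cut at about 42% in these data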;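 further: stock transfer was 100 nL into about 11 µL; a reference agonist was the positive control; negative values mostly stem from fluorescent compounds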
E coli growth – E. coli growth inhibition. Escherichia coli growth, OD600, 23 h; hits give low values. OD600 absorbance (test concentration not listed). AID 1053175. 330,000 compounds, 0.21% hits;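 active means OD600 absorbance below the run mean of sample wells minus 3.6 SD, in any replicate, cut at about 0.56 in these data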;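 further: stock transfer was 300 nL into about 60 µL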
Vif A3G – HIV-1 Vif–A3G interaction blockers – biochemical, TR-FRET, GST-Vif 1-94, biotin-A3G peptide, dose response retest, primary screen (AID 1117319). TR-FRET GST-Vif / biotin-A3G peptide binding; higher % means a stronger effect; test concentration not given here; strong numbers were not always called active. inhibition, %, or IC50 in µM where a hit was titrated. 260,000 compounds, 0.57% hits;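 active means above the screen mean plus three standard deviations and confirmed in dose response; inconclusive means results disagree or hit not tested in dose response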;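 further: Vif residues 1-94 fused to GST binding biotinylated APOBEC3G peptide 110-148; 0% = full assay without inhibitor and 100% = GST in place of GST-Vif; retest series ran down from 100 µM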
Starred values were filed as active, the others as inactive; ? = inconclusive; / = not tested or not shown; & = joins results of further samples.

SMILES	Bfl-1 A1 inh	UCH37 DUB inh	LANA-H2B inh	HNF4A DNA FP	Beta2AR agonist	E coli growth	Vif A3G
COc1ccc(NS(=O)(=O)c2cc(N/C(=N\S(=O)(=O)c3ccccc3)c3ccc(F)cc3)ccc2Cl)cc1	-0.2	/	/	0.5	2.8	/	/
COC(=O)c1ccc(NC(=O)CSCc2ccccc2)cc1	-0.5	1.0	-2.3	-0.9	-1.4	0.726	18.9%
CCCc1nnc(SCC(=O)Nc2ccc(OC)cc2)o1	1.2	2.3	-11.4	0.8	5.6	0.671	/
O=C(NC(=S)Nc1cccc(O)c1)C1CCCCC1	0.6	1.2	0.3	1.7	-6.2	0.681	1.4%
CCN1C(=O)[C@H]2[C@@H](c3ccc(C)cc3)N3C(=O)N(c4cccc(Cl)c4)C(=O)[C@@]3(Cc3ccc(Cl)cc3)[C@H]2C1=O	-0.5	3.7	2.0	-0.7	1.2	/	/
CCOC(=O)COc1ccc(Br)cc1/C=C/c1[nH]c(=O)[nH]c(=O)c1[N+](=O)[O-]	0.2	/	-1.8	-2.7	-12.9	/	0.0%
C=CCN1C(=O)/C(=C\c2cccc(OC(=O)c3ccco3)c2)SC1=S	-0.3	7.1	-4.2	2.1	5.6	0.702	/
O=C(c1cn(-c2ccccc2)nc1-c1cccs1)N1CCN(c2ccccc2)CC1	0.2	3.8	0.4	-3.5	-25.3	0.727	0.9%
CC(NC(=O)C(=O)Nc1nccs1)c1ccccc1 (stereo not drawn)	0.0	5.5	-5.4	1.0	-8.6	0.667	2.0%
CCC(C(=O)NC1CCCC1)N(C(=O)Cn1nnc(-c2ccc(C)o2)n1)c1ccccc1OC (stereo not drawn)	0.9	0.5	1.5	2.2	-0.3	0.702	/
CCCCNC(=S)N/N=C/c1ccc(C)s1	-0.5	/	-0.4	0.2	-14.6	/	5.3%
CSc1ccc(Cl)c(C(=O)OCC(=O)NCc2ccco2)c1	2.6	1.5	-2.8	-1.6	-3.3	0.703	19.4%
Cc1c(OC(C)C(=O)NCC(O)c2ccccc2)ccc2c3c(c(=O)oc12)CCC3 (stereo not drawn)	-0.6	-70.8	-3.3	-1.0	-11.8	0.683	/
O=C1c2ccccc2C(=O)N1OCCCN1C(=O)c2ccccc2S1(=O)=O	/	/	/	-1.0	-7.4	/	-5.3%
CCC(Oc1ccc(F)cc1)C(=O)N1CCCCCCC1 (stereo not drawn)	0.8	2.4	3.3	-3.3	-7.3	0.637	-0.9%
Cc1ccc(S(=O)(=O)N(CC(O)CN2CCCCC2)c2ccccc2)cc1 (stereo not drawn)	1.3	3.3	0.2	3.3	1.3	0.759	4.2%
COc1ccccc1N1CCN(C(=O)CCCCn2c(=O)[nH]c3ccsc3c2=O)CC1	0.0	5.7	1.7	0.7	-0.8	0.744	-1.2%
O=C(CN(C(=O)c1csnn1)c1ccc(F)cc1)NCCc1ccccc1	0.0	4.2	3.9	-1.7	-7.9	0.645	/
Cn1c(=O)n(CC(=O)NCC2CCCO2)c(=O)c2c3c(sc21)CCCC3 (stereo not drawn)	0.2	4.3	-1.8	3.2	-3.5	0.661	/
COCCCN1C(=O)C(=O)/C(=C(/O)c2ccc(S(=O)(=O)N3CCCCC3)cc2)C1c1ccc(F)cc1 (stereo not drawn)	0.7	10.1	-0.7	-4.1	6.9	0.631	1.5%
CCC(=O)Nc1ccc(N2CCC(C)CC2)cc1	-2.3	1.3	6.3	2.0	16.2	0.698	9.9%
CC1(c2nnc(-c3ccc(F)cc3)o2)CC(c2cccnc2)=NO1 (stereo not drawn)	0.8	1.5	-1.8	1.3	-6.5	0.686	/
CC(C)(C)c1ccc2c(c1)OC(C(=O)N/N=C\c1ccc[nH]1)CO2 (stereo not drawn)	24.2*	/	-2.4	5.3	2.5	/	-1.2%
O=C(c1cc2nc(-c3ccco3)cc(C(F)(F)F)n2n1)N1CCN(c2ccccc2)CC1	-1.2	2.1	-0.2	1.8	2.9	0.668	31.5%
O=C(NC(=S)Nc1cc(Cl)ccc1N1CCOCC1)c1ccccc1[N+](=O)[O-]	0.0	4.3	-2.8	0.4	8.7	0.666	/
Cc1ccc(S(=O)(=O)c2nc(S(C)(=O)=O)sc2N2CCCCCC2)cc1	-1.4	4.4	-0.9	5.1	0.4	0.66	/
COc1ccccc1NC(=O)c1ccc(NC(=O)C2CC2C)cc1 (stereo not drawn)	0.1	4.0	-0.6	0.8	6.1	0.674	/
CC(NC(=O)NCCCn1ccnc1)(C(F)(F)F)C(F)(F)F	0.9	0.8	0.8	-2.2	1.1	0.75	8.4%
CCOc1ccc(C(=O)Nc2nnc(C3=COCCO3)o2)cc1	-0.7	/	-3.8	4.0	-2.4	/	/
O=C(N/N=C\c1ccc(-c2ccc([N+](=O)[O-])cc2)o1)C1COc2ccccc2O1 (stereo not drawn)	0.0	/	-0.5	9.7	4.4	/	-0.6%
COc1ccc(N(CC(=O)NCc2ccco2)S(=O)(=O)c2c(C)nn(C)c2C)cc1	0.3	2.1	-7.4	1.0	-8.3	0.799	-0.6%
CCC1(C)Cc2ccccc2-c2nc(-c3ccccc3)oc(=O)c21 (stereo not drawn)	-0.1	4.0	2.0	-5.6	1.1	0.696	19.8%
COc1cccc(-n2c(COc3ccc(C)cc3)nnc2SCC(N)=O)c1	-0.3	-0.4	1.6	0.9	-0.1	0.684	23.8%
Cn1cccc1C(C(=O)NC1CCCCC1)N(C(=O)Cc1cccs1)c1ccc2c(c1)OCO2 (stereo not drawn)	-1.0	3.3	-0.5	-0.4	7.6	0.701	-1.6%&-2.1%
CC(C)c1cc(CNC(=O)CC2C(=O)NCCN2CC2CCCCC2)on1 (stereo not drawn)	0.3	-5.8	-0.9	2.5	0.5	0.675	1.1%
Cc1c(C)c(C)c(S(=O)(=O)N2CCNCC2)c(C)c1C	0.0	4.2	-0.9	0.6	13.1	0.665	-2.3%
Cn1cnnc1SCC(=O)Nc1ccccc1Sc1ccccc1	0.1	0.3	4.4	0.0	-1.0	0.725	?
O=C(COc1cc(F)ccc1[N+](=O)[O-])Nc1cccc(Br)c1	0.2	0.2	-2.5	-2.9	-2.9	0.685	0.0%
CC(=O)c1ccc(OCc2ccc(C(=O)c3ccccc3)cc2)cc1	-0.2	0.8	-2.4	5.3	-1.9	0.705	-2.5%
CCOC(=O)C1=C(CC)Nc2ccccc2N=C1NC(=O)c1oc2ccccc2c1C	0.4	6.3	-2.4	2.4	12.9	0.768	-5.8%
COc1ccc(NC(=O)Cn2nnc(C(=O)NCCc3ccc(OC)c(OC)c3)c2N)cc1	1.2	6.7	-1.7	2.2	-4.6	0.756	23.1%
CC(C)(C)OC(=O)NCCCC[C@H](NC(=O)c1[nH]cnc1C(=O)N[C@@H](Cc1ccccc1)C(=O)OCc1ccccc1)C(=O)OC(C)(C)C	0.6	2.8	0.4	1.9	4.3	/	/
CCCC(=O)Nc1c(-c2ccccc2)c(=O)c(C)nn1-c1ccc(C)cc1	0.6	2.3	4.9	-1.7	-4.7	0.646	-8.2%
C/C(=N\NC(=O)c1cccc([N+](=O)[O-])c1)c1cccnc1	0.9	/	-1.2	5.9	2.7	/	-11.4%
COc1cccc(/C=N\NC(C)=O)c1OC/C=C/c1ccccc1	0.3	/	7.7	-0.3	-6.2	/	/

Three entries out of the list, arranged by heavy-atom count, low to high.
SMILES	Bfl-1 A1 inh	UCH37 DUB inh	LANA-H2B inh	HNF4A DNA FP	Beta2AR agonist	E coli growth	Vif A3G
CCC(=O)Nc1ccc(N2CCC(C)CC2)cc1	-2.3	1.3	6.3	2.0	16.2	0.698	9.9%
COc1ccccc1NC(=O)c1ccc(NC(=O)C2CC2C)cc1 (stereo not drawn)	0.1	4.0	-0.6	0.8	6.1	0.674	/
O=C1c2ccccc2C(=O)N1OCCCN1C(=O)c2ccccc2S1(=O)=O	/	/	/	-1.0	-7.4	/	-5.3%

Following part.
SMILES	Bfl-1 A1 inh	UCH37 DUB inh	LANA-H2B inh	HNF4A DNA FP	Beta2AR agonist	E coli growth	Vif A3G
CC1(C)CC2(CCO1)CNC(=O)O2 (stereo not drawn)	-0.8	0.4	-3.7	0.6	7.3	0.659	0.6%
CC1CCN(S(=O)(=O)c2cccc(-c3cn4cc(Cl)ccc4n3)c2)CC1	0.4	-3.9	-1.4	-2.3	-12.5	0.715	7.5%
CCCCc1c(O)nc(SCC(=O)NCCc2ccc(OC)c(OC)c2)[nH]c1=O	2.6	3.3	1.9	2.2	-5.3	0.78	4.3%
Cc1cc(=O)n2nc(N3CCC(C(=O)NCc4ccccc4Cl)CC3)sc2n1	0.2	2.6	1.2	1.1	2.1	0.634	/
CC(CN1CCOCC1)OC(=O)COc1ccc(F)cc1 (stereo not drawn)	-0.2	-0.9	2.4	4.5	2.3	0.744	?
Cc1cccc(CCNC(=O)Cc2ccc(NC3=NC4CS(=O)(=O)CC4S3)cc2)c1 (stereo not drawn)	/	3.7	-4.2	-1.0	-11.4	0.794	/
CCc1ccc(NC(=O)CNS(=O)(=O)c2c(C)noc2C)cc1	-0.3	0.6	1.2	-1.9	-4.0	0.698	6.0%
COc1ccc(C(=O)N(C)CCCC2CCCC2)cc1OC1CCN(C(C)C)CC1	0.5	4.4	0.9	-4.1	0.8	0.695	-1.1%
O=C(Nc1cccc(S(=O)(=O)N2CCCCC2)c1)c1ccc2c(c1)OCO2	-0.1	3.1	-10.0	1.1	6.9	0.671	14.0%
O=C(Nc1ncn[nH]1)c1ccc(Cl)c(S(=O)(=O)N2CCCCCC2)c1	0.1	2.8	0.2	-1.1	12.7	0.702	-0.1%
O=C(N/N=C/c1cccc(Oc2ccccc2)c1)c1cccc(O)c1	-5.1	/	-9.2	0.3	-13.7	/	/
CCc1noc(C)c1C(=O)Nc1ccc(S(=O)(=O)N2CCCCC2)cc1	-0.3	3.8	0.5	2.3	12.1	0.671	1.6%
CCCCN(CC)CCCNC(=O)C1c2ccccc2C(=O)N(C)C1c1cn(C)c2ccccc12 (stereo not drawn)	0.7	4.5	1.1	5.7	27.3	0.726	-6.9%
CCN(CC)C(c1ccc(F)cc1)c1nnnn1C1CCCCC1 (stereo not drawn)	0.4	3.3	-1.9	1.0	-2.5	0.694	?
CC1CCN(c2ccc3nnc(CCC(=O)NCCCOC(C)C)n3n2)CC1	-0.4	0.6	-1.3	0.5	-4.9	0.678	3.7%
N#CCCN(C(=O)COC(=O)c1cc(=O)c2ccccc2o1)c1ccccc1	0.5	1.1	2.8	1.7	-7.1	0.7	-5.8%
Cc1nn(C(=O)c2ccco2)c(C)c1Sc1ccccc1	-0.7	4.0	3.6	0.4	-2.7	0.786	1.7%
COC1(OC)C=CC(=O)C=C1NC(=O)c1ccccc1OC(C)=O	-0.3	4.7	-3.8	3.7	5.9	0.802	/
COc1ccc(O)c(/C=c2/sc3nc4cc(C)c(C)cc4n3c2=O)c1	/	/	/	-1.1	-4.7	/	4.8%
Cc1ccccc1COC(=O)c1cc([N+](=O)[O-])ccc1N1CCOCC1	0.1	3.6	0.5	2.2	0.0	0.668	/
OCC[C@@H]1C[C@@H](O)[C@H](O)[C@]2(Cc3ccccc3CO2)O1	1.7	0.4	-3.7	-3.4	3.2	/	/
CCCC1(C(=O)OCC)NC(c2ccc(N(C)C)cc2)C2C(=O)N(c3ccc(OCC)cc3)C(=O)C21 (stereo not drawn)	-0.2	-1.4	-1.5	2.5	5.2	0.666	-1.9%
N#CC1(NC(=O)COC(=O)c2cccc(-n3cnnn3)c2)CCCCC1	0.9	3.4	-1.8	-2.2	5.2	0.653	-5.7%
